Assay outcomes deposited in PubChem BioAssay by several laboratories.
HNF4A DNA FP – change in binding of human HNF4 alpha to DNA | P41235 | HNF4a-FITC DNA binding, fluorescence polarization, 1 h | activity change, % at 10 µM | 360,000 compounds, 0.3% hits | AID 1224865; in the data active means activity change above about 30%, passing the limit was not always enough;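 further: controls were the assay level and a saturating level of protein; the project sought stronger binding though the title names inhibitors; some compounds called inactive have numbers as strong as hits; positive values seem to mean higher polarization but the record does not say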
E coli growth – inhibitors of Escherichia coli growth; OD600, 23 h; hits give low values; OD600 absorbance (test concentration not listed); 330,000 compounds, 0.21% hits; AID 1053175;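 active means OD600 absorbance below the run mean of sample wells minus 3.6 SD, in any replicate, cut at about 0.56 in these data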;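 further: stock transfer was 300 nL into about 60 µL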
ALR inh – human ALR oxidase inhibition via reduced H2O2. P55789. purified ALR, DTT oxidation, H2O2 HRP-luminol luminescence. inhibition, % (concentration not given with the values). 290,000 compounds, 3.8% hits;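 active means mean and each replicate at 75% or more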;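 further: stock transfer was 7.5 nL into about 7.5 µL; 0% = neutral wells and 100% = wells with inactivated enzyme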
Target sequence (P55789 whole entry, looked up): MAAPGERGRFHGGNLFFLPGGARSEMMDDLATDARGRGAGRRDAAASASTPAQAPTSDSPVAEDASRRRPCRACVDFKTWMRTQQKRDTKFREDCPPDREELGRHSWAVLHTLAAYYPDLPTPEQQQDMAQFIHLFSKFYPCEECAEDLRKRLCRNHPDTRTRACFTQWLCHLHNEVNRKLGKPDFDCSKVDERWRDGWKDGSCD
UCH37 inh – inhibitors of human deubiquitinating enzyme UCH37. Q9Y5K5. purified proteasome/UCH37, Ub-AMC cleavage fluorescence. inhibition, % (no concentration beside the values). 330,000 compounds, 0.33% hits;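 active means mean of two replicates above 20%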;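 further: 0% = compound-free wells with enzyme and 100% = wells lacking proteasome; stock transfer was 100 nL into about 20 µL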
Target sequence (Q9Y5K5 whole entry, looked up): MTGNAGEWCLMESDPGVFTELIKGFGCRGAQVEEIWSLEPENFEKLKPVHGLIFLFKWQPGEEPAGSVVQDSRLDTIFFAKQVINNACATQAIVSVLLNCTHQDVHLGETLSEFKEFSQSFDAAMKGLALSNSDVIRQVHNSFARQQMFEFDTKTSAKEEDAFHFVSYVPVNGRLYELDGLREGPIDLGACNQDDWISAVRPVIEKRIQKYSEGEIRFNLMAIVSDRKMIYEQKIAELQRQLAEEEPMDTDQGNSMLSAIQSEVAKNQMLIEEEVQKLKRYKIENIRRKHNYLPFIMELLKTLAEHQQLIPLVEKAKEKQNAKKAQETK
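System: Proteasome-associated human UCH37 deubiquitinase; Input: 0.15 nM proteasome in added enzyme buffer; Also added: Ub-AMC substrate from 1 µM stock; Incubation: 30 min compound-proteasome preincubation then 25 min substrate reaction, room temperature; Detection: fluorescence, ex 355 nm, em 460 nm; Read-out: % inhibition of Ub-AMC cleavage fluorescence; Benchmarks: no-proteasome and no-compound wells.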
FGF22 binding – FGF22 (human) thermal shift binding | Q9HCT0 | recombinant FGF22 thermal shift, SYPRO orange fluorescence; percent of sucrose octasulfate shift, DMSO zero | calls only at 9.99 µM | 340,000 compounds, 1.5% hits | AID 651658;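 active means melting point raised past a set limit in the mean and every replicate; three in four hits are not shown here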
Target sequence (Q9HCT0 whole entry, looked up): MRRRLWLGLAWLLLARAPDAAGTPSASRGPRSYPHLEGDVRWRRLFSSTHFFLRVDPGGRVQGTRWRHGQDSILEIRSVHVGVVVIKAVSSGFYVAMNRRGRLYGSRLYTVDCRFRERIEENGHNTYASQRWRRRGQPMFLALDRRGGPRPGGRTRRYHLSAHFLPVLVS
B2AR ag – activates human beta-2 adrenergic receptor causing internalization | P07550 | Am2.2-beta2AR cells, FAP receptor internalization, flow cytometry; reference of the scale not given here | response, % (test concentration not listed) | 340,000 compounds, 0.43% hits;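 active means response above a set limit, near 3 SD of response in nonfluorescent compounds, cut at about 42% in these data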;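 further: stock transfer was 100 nL into about 11 µL; a reference agonist was the positive control; negative values mostly stem from fluorescent compounds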
rRNA inh HTS – inhibitors of bacterial rRNA selective over humanized ribosomes. AID 720706. E. coli WT GFP vs humanized-ribosome RFP mutants, fluorescence, 24 h; hits give low values; DMSO median 0, no signal -100. GFP signal change (wild-type ribosome), % (concentration not given with the values). 350,000 compounds, 1.6% hits;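 active means significant combined selectivity score with lowered wild-type GFP, culture density cut under 30%, mutant RFP and density less affected; inactive means any of these conditions unmet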; further: one replicate is shown; some compounds called inactive have numbers as strong as hits
rRNA inh HTS OD600 – recorded beside rRNA inh HTS, whose call it bears; OD600 change, %; measured here: OD600 growth;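 optical density of the mix in the first replicate; 0 = DMSO median and -100 = no signal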
rRNA inh HTS RFP – also measured in rRNA inh HTS; calls as there; RFP signal change, %; measured here: RFP humanized mutant strains;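 first replicate; 0 = DMSO median and -100 = no signal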
* hit, by the source's call; i = inactive; nt = no result given.

Results follow in this order: HNF4A DNA FP	E coli growth	ALR inh	UCH37 inh	FGF22 binding	B2AR ag	rRNA inh HTS	rRNA inh HTS OD600	rRNA inh HTS RFP
CC(=O)Nc1ccc(NC(=O)CCc2nc3ccccc3c(=O)[nH]2)cc1
    0.5	0.69	-3	2.2	i	-9	17	19	3.2
Cc1ccc(NC(=O)c2ccc(OC(F)(F)F)cc2)cc1S(=O)(=O)N(C)C
    -1.5	0.71	-10	6.5	nt	20	nt	nt	nt
O=C1CC(c2cc(-c3ccccc3)no2)C1
    5.1	0.68	nt	1.2	i	0	9	16	1.5
NCCCC[C@@H](C(=O)N1CCNCC1)n1cc(CN)nn1
    0.9	nt	-12	0.6	i	-1	-14	-5	-2.2
CN(C)S(=O)(=O)c1ccc(Cl)c(NC(=O)CSc2nc3ccccc3c(=O)n2CCCN2CCOCC2)c1
    -0.8	0.65	-12	0.6	nt	7	nt	nt	nt
CC(=O)Nc1ccccc1C(=O)C(=O)Nc1cccc(C(=O)NC2CC2)c1
    -0.5	0.71	-2	4.1	nt	8	nt	nt	nt
CCN(CC(=O)Nc1ccc(NC(C)=O)cc1)CC(=O)Nc1cccc(Cl)c1
    -4.5	0.65	-11	3.0	i	-8	9	0	4.3
COc1ccccc1C(=O)Nc1sc2c(c1C#N)CCC2
    2.3	0.74	-7	-125	nt	3	nt	nt	nt
CC1CCC(NC(=O)CN2CCCN(Cc3ccc(F)cc3Cl)C2=O)CC1 (stereo unspecified)
    0.1	0.75	-9	-2.0	nt	1	nt	nt	nt
CCc1nn(CC(=O)NCCCN(CC)Cc2ccccc2)c(=O)c2cc3sccc3n12
    0.8	0.66	3	0.7	nt	7	nt	nt	nt
OC1CCC(Nc2ccn3nc(-c4cccc(Cl)c4)cc3n2)CC1 (stereo unspecified)
    3.1	nt	nt	nt	i	nt	-19	-16	1.0
COc1ccc(-n2sc3c(c2=S)-c2cc(OC)ccc2NC3(C)C)cc1
    0.7	0.79	42	4.0	nt	17	nt	nt	nt
Cc1noc(C)c1C(=O)N1CCC(C(=O)c2ccc(F)cc2F)CC1
    5.5	0.71	0	4.2	i	-12	24	11	3.4
Cc1nc2ccccn2c1/C(O)=C1\C(=O)C(=O)N(CCN2CCOCC2)C1c1cccs1 (stereo unspecified)
    -0.5	0.68	0	5.6	i	-4	11	4	0.3
COc1ccc(S(=O)(=O)NNC(=O)c2cccs2)cc1
    4.7	0.71	37	0.7	i	4	14	8	3.3
Cc1c(OCC(=O)N2CCC(C(=O)O)CC2)ccc2c3c(c(=O)oc12)CCC3
    4.3	0.73	-23	-41	i	2	1	11	-4.8
c1ccc2c(N3CCOCC3)c3c(nc2c1)CCC3
    -2.5	0.64	-5	4.2	i	-2	10	4	0.7
COc1cccc(OCc2cc(C(=O)N(C)C3CCOCC3)no2)c1
    1.0	0.67	-2	1.0	i	1	4	5	0.7
O=C(Nc1ccc(Cl)cc1)c1ccc(S(=O)(=O)N2CCOCC2)cc1
    -0.1	0.69	1	0.8	i	-8	-13	-11	-1.9
O=C(CN1c2cccc3cccc(c23)S1(=O)=O)Nc1ccccc1
    -2.1	0.64	-14	-37	i	0	4	-5	-8.4

Five of the entries above in order of their number in rRNA inh HTS, low to high.
Results follow in this order: HNF4A DNA FP	E coli growth	ALR inh	UCH37 inh	FGF22 binding	B2AR ag	rRNA inh HTS	rRNA inh HTS OD600	rRNA inh HTS RFP
OC1CCC(Nc2ccn3nc(-c4cccc(Cl)c4)cc3n2)CC1 (stereo unspecified)
    3.1	nt	nt	nt	i	nt	-19	-16	1.0
COc1cccc(OCc2cc(C(=O)N(C)C3CCOCC3)no2)c1
    1.0	0.67	-2	1.0	i	1	4	5	0.7
c1ccc2c(N3CCOCC3)c3c(nc2c1)CCC3
    -2.5	0.64	-5	4.2	i	-2	10	4	0.7
COc1ccc(S(=O)(=O)NNC(=O)c2cccs2)cc1
    4.7	0.71	37	0.7	i	4	14	8	3.3
CC(=O)Nc1ccc(NC(=O)CCc2nc3ccccc3c(=O)[nH]2)cc1
    0.5	0.69	-3	2.2	i	-9	17	19	3.2

4 entries from above, set out differently.
compound	HNF4A DNA FP	E coli growth	ALR inh	UCH37 inh	FGF22 binding	B2AR ag	rRNA inh HTS	rRNA inh HTS OD600	rRNA inh HTS RFP
Cc1ccc(NC(=O)c2ccc(OC(F)(F)F)cc2)cc1S(=O)(=O)N(C)C	-1.5	0.71	-10	6.5	nt	20	nt	nt	nt
O=C1CC(c2cc(-c3ccccc3)no2)C1	5.1	0.68	nt	1.2	i	0	9	16	1.5
NCCCC[C@@H](C(=O)N1CCNCC1)n1cc(CN)nn1	0.9	nt	-12	0.6	i	-1	-14	-5	-2.2
CN(C)S(=O)(=O)c1ccc(Cl)c(NC(=O)CSc2nc3ccccc3c(=O)n2CCCN2CCOCC2)c1	-0.8	0.65	-12	0.6	nt	7	nt	nt	nt

The results go on:
Results follow in this order: HNF4A DNA FP	E coli growth	ALR inh	UCH37 inh	FGF22 binding	B2AR ag	rRNA inh HTS	rRNA inh HTS OD600	rRNA inh HTS RFP
Cc1nonc1C1CCCN1Cc1cn[nH]c1-c1ccc2c(c1)OCO2 (stereo unspecified)
    1.0	0.68	-10	0.6	i	-3	9	-1	0.6
Cc1cccc(NC(=O)NNC(=O)COc2ccc(Cl)cc2)c1
    0.0	0.69	-11	-0.3	nt	3	nt	nt	nt
CCOC(=O)C1CCCN(C(=O)c2ccc(C)c(F)c2)CC1 (stereo unspecified)
    1.3	nt	nt	nt	i	nt	8	13	-0.8
O=C1CN(C(=O)NCC(=O)N[C@@H](Cc2ccccc2)C(=O)O)c2ccccc2N1
    3.3	0.66	nt	-0.8	i	9	7	5	1.2
CC(=O)c1ccc(NC(=O)CN2C(=O)NC(C)(C3CCCCC3)C2=O)cc1 (stereo unspecified)
    -1.9	0.72	-3	-2.3	i	-3	nt	nt	nt
Cc1cc(NC(=O)CSCC(=O)N(C)Cc2ccc(Cl)cc2Cl)no1
    1.4	0.68	-8	2.5	i	17	-13	-19	4.2
Cc1ccc(CN(Cc2ccco2)C(=S)NCC(=O)NC2CC2)cc1
    7.7	0.74	-2	-1.1	i	1	13	8	8.1
CCOc1ncccc1C(=O)Nc1cc(S(=O)(=O)N(CC)CC)ccc1N1CCOCC1
    -2.7	0.7	-13	1.7	i	1	1	-2	1.0
Cc1cccc(C)c1-n1c(C)nn(Cc2ccc([N+](=O)[O-])cc2)c1=O
    7.7	0.73	-5	4.6	i	-1	3	13	-3.7
O=C(COC(=O)CNC(=O)c1ccc(Br)o1)Nc1ccc2c(c1)OCCO2
    0.1	0.68	-6	2.5	nt	2	nt	nt	nt
COc1ccc(OC)c(N(CCN2C(=O)c3ccccc3C2=O)C(=O)C2CCC(=O)C2C)c1 (stereo unspecified)
    1.2	nt	nt	nt	i	nt	-4	-3	-4.3
CC(=O)Nc1ccc(C=CC=Cc2cccc([N+](=O)[O-])c2)cc1
    3.8	nt	nt	nt	i	3	-11	10	-1.7
O=C(NC(Cc1c[nH]c2ccccc12)C(=O)N/N=C/c1cccnc1)c1cccs1 (stereo unspecified)
    -6.9	nt	-3	nt	i	-22	6	0	-0.8
COCCn1c(SCC(=O)c2ccc(CNC(C)=O)o2)nc2ccccc2c1=O
    -3.1	0.69	30	2.1	nt	6	nt	nt	nt
CCOC(=O)c1c(C)oc2c(F)c(F)c(F)c(F)c2c1=O
    -3.5	0.75	-4	7.1	nt	43*	nt	nt	nt
CCOC(=O)C1=C(C(F)(F)F)Nc2ncnn2C1c1ccc(OC)c(OC)c1OC (stereo unspecified)
    4.4	0.68	73	1.6	nt	4	nt	nt	nt
CNC(=O)Nc1cccc(-c2ccnc(C)n2)c1
    2.3	0.68	-11	4.4	i	0	6	1	-0.3
Cc1oc(C(C)(C)C)cc1C(N)=O
    1.7	0.65	4	2.8	i	-1	9	-3	-2.7
CCOc1cc(/C=N\NC(=O)OC(C)(C)C)ccc1OC(=O)c1ccco1
    1.7	nt	5	nt	i	-1	15	15	-0.8
COc1ccc(OC)c2sc(N(CCN(C)C)C(=O)c3cc(Cl)sc3Cl)nc12
    1.8	nt	-16	nt	i	-8	-2	1	4.5
O=C(CCC1CCN(Cc2ccc(C#CCCO)cc2)CC1)NC1CC1
    4.4	0.66	-1	1.4	i	-4	19	18	2.9
COC(=O)c1ccccc1OCCOc1ccccc1C(=O)OC
    -3.2	0.69	-7	-1.3	nt	-5	nt	nt	nt
CC1(C)CC(=O)C2=C(C1)NC(=O)NC2c1ccc([N+](=O)[O-])cc1 (stereo unspecified)
    0.8	0.66	nt	4.5	i	-2	-1	10	-0.7
CC1(C)CC2(CCO1)N1CC3(C)CN2CC(C)(C1)C3O (stereo unspecified)
    0.4	0.68	-2	-0.2	nt	-14	nt	nt	nt
Cc1ccc(N2CC(C(=O)N3CCOCC3)CC2=O)cc1Cl (stereo unspecified)
    -0.6	0.68	-7	-0.7	i	1	4	10	0.5
O=C(C1CCCN(S(=O)(=O)Cc2ccccc2)C1)N1CCc2ccccc21 (stereo unspecified)
    0.8	0.69	-1	0.5	nt	-1	nt	nt	nt
Cc1ccc(C(=O)Nc2ncn[nH]2)cc1
    -3.0	0.67	-4	1.3	i	0	9	1	2.1
CC1(c2nnc(-c3ccncc3)o2)CC(c2ccc(F)cc2)=NO1 (stereo unspecified)
    -0.6	nt	0	-1.6	i	-1	-2	-11	-4.5
COc1ccc(C(=O)COc2cccc(NC(=O)c3ccco3)c2)cc1
    4.1	0.69	nt	0.8	nt	-16	nt	nt	nt
CC(C)n1cc(CN2CCC(n3nccc3NC(=O)C3CCCC3)CC2)cn1
    0.5	0.74	-1	4.9	i	-7	-26	-27	4.9
OCCNc1nc2nonc2nc1NCCO
    1.3	0.71	nt	1.9	i	4	6	9	1.5
FC(F)Oc1ccccc1/C=N/Nc1nc2ccccc2o1
    -3.2	nt	-6	nt	i	-2	-2	10	-2.4
O=C(CCC(=O)c1ccccc1)Nc1ccccc1
    -4.4	0.64	-4	0.8	i	-5	8	11	3.3
Cc1nn(Cc2ccccc2)c(C)c1N
    1.1	0.65	-10	0.0	nt	2	nt	nt	nt
Cc1ccc(S(=O)(=O)NCCCCCC(=O)Nc2ccccc2)cc1
    -2.2	0.69	3	1.7	nt	-6	nt	nt	nt
CCOC(=O)Cc1c(C)[nH]n(-c2ccccc2)c1=O
    4.2	0.62	nt	1.4	i	3	5	-11	-1.1

An excerpt; rates above refer to the full screens.
